# High-throughput results deposited in PubChem BioAssay by several laboratories.
# GALR2 agonist – activates the human galanin receptor 2; activation, %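 (tested at 5 µM)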; GALR2-expressing cells, agonist activation read-out; O43603; AID 803; hit rate 0.48% among 140,000;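 active means above mean plus 3 SD of all compounds, about 5% in these data, not always enough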;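 further: 0% = vehicle buffer wells and 100% = reference agonist at full effect; tested in CHO reporter cells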
# Target sequence (O43603 whole entry, looked up): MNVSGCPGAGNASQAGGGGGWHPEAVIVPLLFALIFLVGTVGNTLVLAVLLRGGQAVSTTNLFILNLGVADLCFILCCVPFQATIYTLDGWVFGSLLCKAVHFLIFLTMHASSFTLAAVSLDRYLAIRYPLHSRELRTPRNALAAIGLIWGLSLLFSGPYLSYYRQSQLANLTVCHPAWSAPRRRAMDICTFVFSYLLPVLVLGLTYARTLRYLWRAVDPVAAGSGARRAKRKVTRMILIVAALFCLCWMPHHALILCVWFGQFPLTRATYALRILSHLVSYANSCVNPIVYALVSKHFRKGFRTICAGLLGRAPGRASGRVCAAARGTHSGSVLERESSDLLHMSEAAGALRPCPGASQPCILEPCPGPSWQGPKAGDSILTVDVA
# HSV augment – increases HSV replication in cells; HSV replication augmentation in cells, fold increase; maximum fold increase; hit rate 0.005% among 220,000; AID 1956;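 active means peak rise of 1.5-fold or more in the series; tested in PC3 cells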;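 further: first round at 10 µM; read as green reporter fluorescence; hits show the peak of a series up to 25 µM; 1 = signal of infected wells without compound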
# PKD1 kinase inh – PKD1 (human) kinase inhibition. Q15139. AID 797. hit rate 0.056% among 200,000. PKD1 kinase fluorescence polarization assay. inhibition, %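 (about 10 µM by stock and volumes)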;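 active means inhibition of 50% or more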;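 further: controls were vehicle for no effect and a reference inhibitor for full effect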
# RGS16-Gao HTS – RGS16-Galphao interaction regulator (human); O15492+P09471; bead-based flow cytometry RGS16-Galphao binding, fluorescence; actives lie on both sides; binding response (% of control), % at 10 µM; hit rate 0.38% among 220,000; AID 1441;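 active means below 25% or above 175%, edge rows of some plates excepted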;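 further: Galphao activated by GDP with aluminum fluoride before binding; 100% = wells without compound and 0% = beads without RGS; some results beyond the cut were filed as inactive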
# Target sequence (O15492 whole entry, looked up): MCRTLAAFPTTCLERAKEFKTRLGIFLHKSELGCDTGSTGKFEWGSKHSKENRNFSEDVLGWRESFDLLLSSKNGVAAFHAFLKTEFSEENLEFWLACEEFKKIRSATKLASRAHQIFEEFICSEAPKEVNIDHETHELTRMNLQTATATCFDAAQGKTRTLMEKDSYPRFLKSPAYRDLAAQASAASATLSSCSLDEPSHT
# Target sequence (P09471 whole entry, looked up): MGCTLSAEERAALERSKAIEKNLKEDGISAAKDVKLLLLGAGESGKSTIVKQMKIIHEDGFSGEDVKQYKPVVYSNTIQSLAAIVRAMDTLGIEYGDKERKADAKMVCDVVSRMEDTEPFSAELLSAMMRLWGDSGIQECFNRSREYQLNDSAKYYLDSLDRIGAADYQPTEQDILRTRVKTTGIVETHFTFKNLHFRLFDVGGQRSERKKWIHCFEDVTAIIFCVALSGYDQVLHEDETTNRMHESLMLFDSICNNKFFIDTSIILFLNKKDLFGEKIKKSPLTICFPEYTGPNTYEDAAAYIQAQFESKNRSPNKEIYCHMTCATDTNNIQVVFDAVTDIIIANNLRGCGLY
# INS promoter inh – TRM-6 insulin promoter activity inhibition. inhibition, % at 2 µM. hit rate 0.9% among 130,000. TRM-6 cells (human fetal islet line), insulin promoter-eGFP reporter, imaging; reporter expression induced with tamoxifen;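 active means inhibition above the mean plus 3 SD, with well images judged a real hit on visual review, cut at about 60% in these data, passing the limit was not always enough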
# INS promoter inh cell count – recorded beside INS promoter inh, whose call it bears; normalized cell count, %; measured here: cell count, toxicity; reference of the scale not given here;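 cells exposed to compound for 48 h; stained nuclei by imaging scaled within each plate; lower means fewer cells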
# HSV augment primary fold – further read-out of HSV augment, marked with its call; fold increase; compound at 10 µM; measured here: primary screen fold increase 10 uM; tested in PC3 cells;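 GFP signal in the first replicate; 1 = infected wells without compound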
# * = called active by the depositor; i = inactive; / = no result given.
structure,INS promoter inh cell count,RGS16-Gao HTS,PKD1 kinase inh,HSV augment,HSV augment primary fold,GALR2 agonist,INS promoter inh
C/C(=N\Nc1cc(-c2ccccc2)nc(-c2ccc(Br)cc2)n1)c1cccc(N)c1,97,/,-1,i,0.74,-1.9,-63
CN1CCN(c2ccc(S(=O)(=O)N3CCOCC3)cc2NC(=O)CCc2ccccc2)CC1,/,100,/,i,0.97,/,/
COc1cc(OC)cc(C(=O)NNC(=O)NC2CCCCC2)c1,/,/,-7,i,0.92,-0.9,/
COc1cccc(CNC(=O)C2(C)Oc3ccccc3NC2=O)c1 (centres undefined),125,104,-5,i,0.76,-1.2,-50
O=C1N(CN2CCN(Cc3ccccc3)CC2)c2ccccc2C12OCCCO2,102,108,-7,i,1.1,/,17
CCOC(=O)CC(=O)CSc1nc(C)nc2c1oc1ccccc12,113,111,0,i,0.9,-0.6,-15
O=C(Nc1ccc2c(c1)OCO2)c1nn(-c2ccccc2)c(=O)c2ccccc12,129,101,6,i,1,-2.5,29
CCCCNC1CCS(=O)(=O)C1 (centres undefined),72,/,5,i,1.1,0.6,55
COc1cccc(-c2cc(C(=O)NCCc3ccccc3)no2)c1,110,108,-2,i,0.85,-2.8,-2
O=C(NCc1ccco1)c1cc2ccccc2c(=O)o1,71*,83,-10,i,0.95,-1.1,79*
O=C(Oc1ccc(-n2cnnn2)cc1)c1ccccc1,/,96,-1,i,0.95,/,/
COc1ccc(/C(CC2OC(=O)c3ccccc32)=N\NC(N)=O)cc1 (centres undefined),/,100,4,i,0.87,/,/
CNC(=S)Nc1ccccc1-c1ccccc1,102,104,0,i,0.95,-0.6,0
COc1ccc(OC)c(NS(=O)(=O)c2ccc(NC(=O)c3ccc(NS(C)(=O)=O)cc3)cc2)c1,116,97,3,i,1,-0.8,-2
C=CCOC(=O)C1=C(C)OC(N)=C(C#N)C1c1ccccc1F (centres undefined),/,106,-11,i,1,-0.7,/
O=C1C2C3CC(C(Br)C3Br)C2C(=O)N1CC1CCCO1 (centres undefined),/,98,/,i,1.1,/,/
CNC(=O)c1cc2c(=O)n3cc(C)ccc3nc2n(C(C)C)c1=N,124,100,-10,i,0.95,16*,-27
CCOC(=O)c1ccn(-c2nc(-c3ccco3)cc(C(F)(F)F)n2)n1,165,106,-3,i,0.9,-0.7,0
Cc1ccc(N2CN(CCC3=CCCCC3)CNC2=S)cc1,/,116,/,i,0.86,/,/
c1ccc(CSc2nnc(-c3c[nH]c4ccccc34)o2)cc1,/,85,11,i,0.87,-0.6,/
COc1cc(OC)cc(C(=O)OCC(=O)Nc2sccc2C(N)=O)c1,/,101,-2,i,0.79,/,/
COc1ccccc1OCC(=O)NNc1c2ccccc2nc2ccccc12,/,92,/,i,0.72,/,/
Cc1ccc(-n2c(C)cc(/C=C(\C#N)C(=O)NCC3CCCO3)c2C)cc1 (centres undefined),78,97,4,i,0.93,-1.2,-57
O=C(COc1ccc(Cl)cc1)Nc1nnc(-c2ccco2)o1,94,109,-1,i,0.99,/,22
CC(=O)OCC1OC(OC(C)=O)C(NC(=O)Cc2ccccc2)C(OC(C)=O)C1OC(C)=O (centres undefined),/,101,2,i,0.99,/,/
Cc1ccc(C(=O)N/N=C/c2ccc([N+](=O)[O-])s2)cc1,127,107,-3,i,0.84,-1.0,-8
Nc1ccc(SC(F)(F)F)cc1,/,94,-4,i,0.97,/,/
O=C(CN1C(=O)C2C3c4ccccc4C(c4ccccc43)C2C1=O)Nc1cccc(C(=O)O)c1 (centres undefined),62,94,6,i,0.92,-0.7,25
O=c1ccc(Br)c[nH]1,105,102,-5,i,1.1,-1.3,7
Cc1ccccc1Nc1nnc(SCC2CCCCO2)s1 (centres undefined),113,109,-2,i,0.89,-1.2,0
O=C(NCc1ccco1)c1ccc(CN2CCOCC2)cc1,/,103,-1,i,0.99,-3.2,/
O=C(Nc1ccc(Nc2ccccc2)cc1)Nc1ccccc1Cl,/,104,/,i,0.94,/,/
COC(=O)c1ccc(COC(=O)CCS(=O)(=O)c2ccc(C)cc2)cc1,/,97,0,i,0.96,/,/
O=C(COC(=O)/C=C/C(=O)N1CCN(c2ccccc2)CC1)NC(c1ccccc1)c1ccccc1,59,108,3,i,0.83,/,-125
COc1ccc(/C=C2\SC(=O)N(CCNC(=O)C3CCN(S(=O)(=O)c4cccs4)CC3)C2=O)cc1,149,102,-4,i,0.98,-0.7,-24
CCOC(=O)c1csc(-c2ccc3c(c2)CCO3)n1,/,108,/,i,0.97,/,/
COCC(C)n1c(C)cc(C(=O)COC(=O)c2n[nH]c3ccccc23)c1C (centres undefined),139,100,-3,i,0.84,-2.5,46
CC(C)CC(=O)Nc1nnc(CSCc2ccc(F)cc2)s1,/,96,/,i,0.95,/,/
O=C(c1cnn2c(C(F)F)cc(-c3ccccc3)nc12)N1CCSCC1,133,96,-21,i,0.84,-1.4,7
CC(C)(C)[C@H]1C=C(C(=O)N2CCN(Cc3ccc4c(c3)OCO4)CC2)O[C@@H](OCc2ccc(CO)cc2)C1,/,110,0,i,1,/,/

# Given with each value named: part of the list above
COc1ccc(/C=C2\SC(=O)N(CCNC(=O)C3CCN(S(=O)(=O)c4cccs4)CC3)C2=O)cc1
- INS promoter inh cell count = 149
- RGS16-Gao HTS = 102
- PKD1 kinase inh = -4
- HSV augment = i
- HSV augment primary fold = 0.98
- GALR2 agonist = -0.7
- INS promoter inh = -24

CCOC(=O)c1csc(-c2ccc3c(c2)CCO3)n1
- INS promoter inh cell count = /
- RGS16-Gao HTS = 108
- PKD1 kinase inh = /
- HSV augment = i
- HSV augment primary fold = 0.97
- GALR2 agonist = /
- INS promoter inh = /

# (list continues)
structure,INS promoter inh cell count,RGS16-Gao HTS,PKD1 kinase inh,HSV augment,HSV augment primary fold,GALR2 agonist,INS promoter inh
CC(=O)Oc1cccc(/C=C2\C=C(c3ccc(C)cc3)OC2=O)c1,/,100,-6,i,1.1,/,/
CN1CCC(N(C)CC(=O)Nc2ccc3c(c2)OC(F)(F)O3)CC1,/,98,/,i,0.92,/,/
COc1ccc(N2C(=O)C3C(C2=O)C(C(=O)c2ccccc2)N2CCCC32)cc1 (centres undefined),/,97,/,i,1,/,/
CCOc1ccc2ccccc2c1C(=O)N[C@@H]1C(=O)N2[C@@H]1SC(C)(C)[C@@H]2C(=O)O,/,93,/,i,0.73,/,/
CN(C)S(=O)(=O)c1cccc(NC(=O)Cc2ccc(Cl)cc2)c1,108,113,-16,i,0.79,-1.4,-9
CCC(C)NC(=O)c1cnn2c1NC(c1cccs1)CC2C(F)(F)F (centres undefined),89,110,-10,i,0.76,-1.9,64
Clc1cc2nc3ccccn3c2cc1Cl,63,93,4,i,0.79,-0.1,6
CCCNc1cc(=O)n(C)c(=O)n1C,116,102,6,i,0.96,-2.1,-32
COc1ccc(NC(=O)c2ccccc2)cc1NS(=O)(=O)c1ccc(F)cc1,141,101,-2,i,0.94,-1.5,54
CC1=CC(C)(C)NC(=S)N1c1ccc(C)c(C)c1,75,110,-5,i,0.95,/,20
Cc1cc(C)nc(SCc2ccccc2C#N)n1,/,93,13,i,0.84,-1.4,/
Cc1cc(Nc2ccc(Br)cc2)n2nc(C)nc2n1,/,138,-3,i,0.91,0.1,/
COc1cccc(C=Nc2ccccc2C#N)c1O,124,99,1,i,0.99,-0.6,9
Cc1cccnc1NC(=O)C(C)Oc1ccccc1 (centres undefined),103,103,-11,i,0.94,-5.2,-20
CCC1Oc2ccc(C)cc2N(CC(=O)N(Cc2ccc(C)o2)C2CCCC2)C1=O (centres undefined),59,67,-9,/,/,-2.1,-256
Cc1cccc2c(C(=O)N3CCN(C(=O)c4ccco4)CC3)cc(-c3cccc(Br)c3)nc12,/,94,-1,i,0.84,/,/

# Some of these compounds in order of formula weight, lowest first:
structure,INS promoter inh cell count,RGS16-Gao HTS,PKD1 kinase inh,HSV augment,HSV augment primary fold,GALR2 agonist,INS promoter inh
COc1cccc(C=Nc2ccccc2C#N)c1O,124,99,1,i,0.99,-0.6,9
CC1=CC(C)(C)NC(=S)N1c1ccc(C)c(C)c1,75,110,-5,i,0.95,/,20
Cc1cc(Nc2ccc(Br)cc2)n2nc(C)nc2n1,/,138,-3,i,0.91,0.1,/
Cc1cccc2c(C(=O)N3CCN(C(=O)c4ccco4)CC3)cc(-c3cccc(Br)c3)nc12,/,94,-1,i,0.84,/,/

# Next section.
structure,INS promoter inh cell count,RGS16-Gao HTS,PKD1 kinase inh,HSV augment,HSV augment primary fold,GALR2 agonist,INS promoter inh
COc1ccc(CN(Cc2ccc(OC)cc2)S(=O)(=O)c2ccc(-n3cnnn3)c(C)c2)cc1,116,96,3,i,0.98,-2.4,6
O=[N+]([O-])c1cc(C(F)(F)F)ccc1-n1nnc2ccccc21,/,106,5,i,1,0.6,/
Cc1ccc2c(c1)Cc1nc3ccccc3nc1-2,98,114,-6,i,1,/,0
CCS(=O)(=O)NCCc1csc(-c2ccccc2)n1,117,103,12,i,0.93,-2.2,7
CN1CCN(C(=S)Nc2ccc(S(N)(=O)=O)cc2)CC1,/,99,5,i,0.83,/,/
CC(C)CN1C(=S)SC(C)(C)C1n1oc(=O)n(-c2ccc(Cl)cc2)c1=O (centres undefined),113,100,-4,i,0.72,-1.8,-8
O=C(NC(=S)Nc1cccc([N+](=O)[O-])c1)c1ccco1,147,110,-2,i,0.94,-1.8,6
COc1ccc(CC(=O)NCc2nnc(SCC(=O)Nc3nccs3)n2C)cc1,84,103,-3,i,0.96,/,-330

# 6 of the entries above in order of the HSV augment primary fold value, rising:
molecule	RGS16-Gao HTS	PKD1 kinase inh	HSV augment	HSV augment primary fold	GALR2 agonist
COc1cc(OC)cc(C(=O)OCC(=O)Nc2sccc2C(N)=O)c1	101	-2	i	0.79	/
O=C(COC(=O)/C=C/C(=O)N1CCN(c2ccccc2)CC1)NC(c1ccccc1)c1ccccc1	108	3	i	0.83	/
COc1cc(OC)cc(C(=O)NNC(=O)NC2CCCCC2)c1	/	-7	i	0.92	-0.9
O=C(Nc1ccc(Nc2ccccc2)cc1)Nc1ccccc1Cl	104	/	i	0.94	/
CNC(=S)Nc1ccccc1-c1ccccc1	104	0	i	0.95	-0.6
COc1ccc(OC)c(NS(=O)(=O)c2ccc(NC(=O)c3ccc(NS(C)(=O)=O)cc3)cc2)c1	97	3	i	1	-0.8

# (listing goes on)
structure,INS promoter inh cell count,RGS16-Gao HTS,PKD1 kinase inh,HSV augment,HSV augment primary fold,GALR2 agonist,INS promoter inh
CCN(CC(=O)Nc1sc2c(c1C#N)CCCC2)Cc1nc2ccccc2c(=O)[nH]1,/,94,5,i,0.9,/,/
Cc1ccc2c(c1)sc1nc(=O)n(-c3ccccc3)c(=O)n12,/,101,/,i,0.99,/,/
O=C(CCCCn1c(=O)c2ccccc2n(CC(=O)NC2CCCC2)c1=O)NC1CCCC1,144,99,9,i,1.1,-2.1,23
Cc1ccc(-c2csc(NC(=O)COC(=O)c3cccc(S(=O)(=O)N4CCOCC4)c3)n2)cc1,137,104,0,i,0.92,-2.0,0
CCn1ncc(C2=NOC(C(=O)Nc3cccc(C(C)=O)c3)C2)c1C (centres undefined),/,104,-18,i,1.1,-1.7,/
CN1C(=O)CC(N2CCN(c3ccccc3)CC2)C1=O (centres undefined),111,/,-4,i,0.99,-1.5,0
CC1(C)CC(=O)c2c(O)cc(OCc3ccc(Br)cc3)cc2O1,107,98,-1,i,1.1,0.0,-23
